Bioassay records from PubChem BioAssay.
AF4-AF9 inh = blocks AF4 peptide binding to human AF9; inhibition, % at 10 µM; AID 651704; hit rate 0.47% among 350,000; P42568; AlphaScreen, biotin-AF4 peptide binding to FLAG-AF9;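 active = every replicate reaching a set inhibition limit, whatever the replicate mean, cut at about 25% in these data; inconclusive = mean inhibition reaches that limit but some replicates miss it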;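 also: 0% = plate neutral control median and 100% = total signal loss; the record names both 10 and 1 µM as test concentration; the first replicate is given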
Target sequence (P42568 whole entry, looked up): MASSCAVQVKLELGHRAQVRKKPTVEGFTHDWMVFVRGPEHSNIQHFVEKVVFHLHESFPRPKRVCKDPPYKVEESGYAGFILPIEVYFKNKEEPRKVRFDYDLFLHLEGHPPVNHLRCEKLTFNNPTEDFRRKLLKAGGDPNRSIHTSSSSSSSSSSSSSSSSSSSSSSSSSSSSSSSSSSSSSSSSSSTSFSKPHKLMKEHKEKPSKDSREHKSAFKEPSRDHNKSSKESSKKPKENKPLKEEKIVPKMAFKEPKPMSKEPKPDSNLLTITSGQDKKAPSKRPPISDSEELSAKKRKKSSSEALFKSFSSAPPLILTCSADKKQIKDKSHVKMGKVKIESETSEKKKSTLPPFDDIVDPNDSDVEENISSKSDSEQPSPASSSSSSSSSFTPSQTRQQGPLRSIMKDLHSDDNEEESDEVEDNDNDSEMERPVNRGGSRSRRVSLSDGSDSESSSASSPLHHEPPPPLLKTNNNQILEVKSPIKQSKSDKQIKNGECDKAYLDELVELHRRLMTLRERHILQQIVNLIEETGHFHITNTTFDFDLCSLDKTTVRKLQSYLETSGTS
rRNA inh HTS = selective bacterial rRNA inhibition in E. coli; E. coli WT GFP vs humanized-ribosome RFP mutants, fluorescence, 24 h; active compounds read low; DMSO median 0, no signal -100; GFP signal change (wild-type ribosome), % (concentration not given with the values); hit rate 1.6% among 350,000; AID 720706;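 active = significant combined selectivity score with lowered wild-type GFP, culture density cut under 30%, mutant RFP and density less affected; inactive = any of these conditions unmet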; also: one replicate is shown; some compounds called inactive have numbers as strong as hits
Beta apoptosis = blocks beta cell apoptosis. INS-1E cytokine-induced death, ATP luminescence, 48 h; percent of positive-control rescue, neutral wells zero. protection from apoptosis, % (concentration not given with the values). hit rate 0.8% among 300,000. AID 435005;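 active = all replicates at 75% or more, or half of them and the mean; inconclusive = half reach 75% but not the mean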;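 also: 0% = cytokine-treated negative control wells and 100% = positive control rescue; higher means more ATP so stronger rescue from cytokine killing; wells of about 40 µL received 100 nL stock; the first replicate is given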
FGF22 binding = FGF22 (human) thermal shift binding | Q9HCT0 | recombinant FGF22 thermal shift, SYPRO orange fluorescence; percent of sucrose octasulfate shift, DMSO zero | calls only at 9.99 µM | hit rate 1.5% among 340,000 | AID 651658;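 active = melting point raised past a set limit in the mean and every replicate; inconclusive = no clear call; three in four hits are not shown here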
Target sequence (Q9HCT0 whole entry, looked up): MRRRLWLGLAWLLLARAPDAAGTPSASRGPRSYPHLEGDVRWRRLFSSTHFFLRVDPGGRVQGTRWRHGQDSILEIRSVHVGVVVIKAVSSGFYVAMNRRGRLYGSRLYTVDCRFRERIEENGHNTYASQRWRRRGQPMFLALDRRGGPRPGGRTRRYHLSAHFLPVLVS
Calb FLC = affects C. albicans growth with fluconazole; C. albicans CaCi-2 (fluconazole-resistant clinical isolate) + fluconazole, Alamar Blue growth, 48 h; growth inhibition, % (concentration not given with the values); hit rate 0.57% among 300,000; AID 1979;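 active = most replicates above 75%; inconclusive = exactly half above 75%; inactive = most below 75%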;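 also: all wells also contain fluconazole at 8 µg/ml as a sub-toxic cotreatment; 0% = median of DMSO wells and 100% = median of geldanamycin control wells; wells of about 8 µL received 7.5 nL stock; the first replicate is given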
T cruzi inh = T. cruzi replication inhibition. hit rate 1.4% among 300,000. T. cruzi beta-gal in NIH3T3, luminescence, 90 h. inhibition, % (test concentration not listed). AID 1885;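 active = mean inhibition across valid replicates above about 55%, limit read from the data; inconclusive = mean below that limit but half or more replicates reach it; inactive = mean below it, under half of replicates reach it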;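 also: signal also drops with host cell toxicity which is not excluded here; 0% = plate median of DMSO wells and 100% = zero luminescence signal; higher percent means less beta-gal luminescence so fewer parasites; stock transfer was 50 nL into about 50 µL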
ALR inh = human ALR oxidase inhibition via reduced H2O2. P55789. purified ALR, DTT oxidation, H2O2 HRP-luminol luminescence. inhibition, % (concentration not given with the values). hit rate 3.8% among 290,000. AID 485317;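 active = mean and each replicate at 75% or more; inconclusive = only one of the two met; inactive = neither met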;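 also: stock transfer was 7.5 nL into about 7.5 µL; 0% = neutral wells and 100% = wells with inactivated enzyme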
Target sequence (P55789 whole entry, looked up): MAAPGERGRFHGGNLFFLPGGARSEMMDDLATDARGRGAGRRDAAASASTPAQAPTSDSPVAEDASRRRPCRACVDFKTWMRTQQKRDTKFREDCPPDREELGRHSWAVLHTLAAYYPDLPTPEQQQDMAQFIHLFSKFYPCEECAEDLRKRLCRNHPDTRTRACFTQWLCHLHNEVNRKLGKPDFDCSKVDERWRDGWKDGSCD
RanGTP-Impb inh = disruptors of Ran-importin-beta complex formation – biochemical, FRET, CFP-Ran, YFP-importin-beta, homogeneous, primary screen; hit rate 1.1% among 300,000; inhibition, % (test concentration not listed); AID 2216; cell-free CFP-Ran/YFP-importin-beta FRET ratio;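 active = most replicates above 15%; inconclusive = exactly half above 15%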;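 also: 0% = DMSO wells and 100% = Ran loaded with GDP instead of GTP; wells of about 40 µL received 100 nL stock; the first replicate is given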
rRNA inh HTS OD600 = also measured in rRNA inh HTS; calls as there; OD600 change, %; measured here: OD600 growth;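 optical density of the mix in the first replicate; 0 = DMSO median and -100 = no signal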
rRNA inh HTS RFP = also measured in rRNA inh HTS; calls as there; RFP signal change, %; measured here: RFP humanized mutant strains;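 first replicate; 0 = DMSO median and -100 = no signal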
Active calls of the source: *; i = inactive; ? = inconclusive; · = no result given; & = joins results of further samples. An excerpt; rates above refer to the full screens.

Structure	AF4-AF9 inh	rRNA inh HTS	rRNA inh HTS OD600	rRNA inh HTS RFP	Beta apoptosis	FGF22 binding	Calb FLC	T cruzi inh	ALR inh	RanGTP-Impb inh
O=C(Cc1ccc(Cl)c(Cl)c1)Nc1ccccc1N1CCOCC1	-7.3	-9	-4	6.0	2	i	-2	12	·	5.6
CC(=O)[C@H]1CC[C@H]2[C@@H]3CCC4=CC(=O)CC[C@]4(C)[C@H]3CC[C@]12C	0.9&4.6	-55	-78	-18	-3&6	i	11	9	-4&-4	3.1
O=c1[nH]c(N2CCOCC2)nc2ccccc12	-2.3	2	13	-2.1	1	i	-3	-4	·	5.2
CC(C)CNC(=O)CN(C1CCCCC1)S(C)(=O)=O	·	·	·	·	1	·	7	1	-2	7.0
COc1cc(NC(=O)c2ccc([N+](=O)[O-])o2)ccc1NC(=O)c1cccs1	-0.2	-7	-3	5.6	78*	i	-4	86*	·	3.6
C[C@H](NC(=O)OC(C)(C)C)C(=O)NCC1CCC(C(=O)O)CC1 (some centres undefined)	-2.4	·	·	·	-4	·	-3	-14	0	-1.3
COc1ccccc1C(CNC(=O)c1cccc(NS(=O)(=O)c2ccc(C)c(F)c2)c1)N(C)C (centres undefined)	1.5	5	1	4.3	6	i	-11	6	6	-1.5
CCOc1ccc(NC(=O)CCn2c(=S)oc3ccccc32)cc1	-10	11	18	2.0	-5	i	2	0	·	-2.5
Cc1ccccc1N(CC(=O)NCc1ccco1)C(=O)CNS(=O)(=O)c1ccc(F)cc1	4.0	5	7	-0.1	3	i	1	6	-10	4.9
COc1cc(C=O)ccc1OCCCCOc1ccccc1[N+](=O)[O-]	1.9	·	·	·	-5	i	13	-8	96*	1.2
COc1cccc(C(=O)N2CCN(S(=O)(=O)Cc3ccccc3)CC2)c1	1.1	9	6	-3.9	-2	i	10	-14	-2	-3.9
Cc1c(Cl)ccc2c1NC(=O)[C@]21N[C@@H](Cc2ccccc2)[C@H]2C(=O)N(c3ccc(F)cc3)C(=O)[C@H]21	·	·	·	·	0	·	89*	29	-1	0.9

Whole records as entered above. Values in the order: AF4-AF9 inh	rRNA inh HTS	rRNA inh HTS OD600	rRNA inh HTS RFP	Beta apoptosis	FGF22 binding	Calb FLC	T cruzi inh	ALR inh	RanGTP-Impb inh
Results for O=C(Cc1ccc(Cl)c(Cl)c1)Nc1ccccc1N1CCOCC1 = -7.3	-9	-4	6.0	2	i	-2	12	·	5.6
Results for CC(C)CNC(=O)CN(C1CCCCC1)S(C)(=O)=O = ·	·	·	·	1	·	7	1	-2	7.0
Results for Cc1ccccc1N(CC(=O)NCc1ccco1)C(=O)CNS(=O)(=O)c1ccc(F)cc1 = 4.0	5	7	-0.1	3	i	1	6	-10	4.9
Results for O=c1[nH]c(N2CCOCC2)nc2ccccc12 = -2.3	2	13	-2.1	1	i	-3	-4	·	5.2

The results go on.
Structure	AF4-AF9 inh	rRNA inh HTS	rRNA inh HTS OD600	rRNA inh HTS RFP	Beta apoptosis	FGF22 binding	Calb FLC	T cruzi inh	ALR inh	RanGTP-Impb inh
O=C(COC(=O)CCc1c[nH]c2ccccc12)NCc1ccc2c(c1)OCO2	0.8	-7	-1	7.9	·	i	-9	3	4	1.5
S=C1Cc2ccccc2C(c2ccc(Cl)cc2)N1 (centres undefined)	1.7	25	-8	-0.4	0	i	-4	0	34	2.1
CN(C)c1nc(Oc2ccc(=O)[nH]n2)nc(N2CCOCC2)n1	·	·	·	·	4	·	-4	-15	-3	1.5
CC1(C)C(=O)NCCN1C(=O)CC1C(=O)NCCN1Cc1cccc(C(F)(F)F)c1 (centres undefined)	4.3	4	-1	-1.2	·	i	21	2	-35	3.8
CCC(C)NC(=O)c1c(N)n(/N=C/c2ccccn2)c2nc3ccccc3nc12 (centres undefined)	·	5	-5	3.4	7	·	0	62*	-12	?
CCOC(=O)c1[nH]c2cc3c(cc2c1NC(=O)CN1CCCC1)OCO3	1.7	7	-9	-1.2	·	i	-4	-7	1	-4.2
O=C(Cn1cnc2c(cnn2-c2ccccc2)c1=O)NCc1ccccc1	·	·	·	·	3	·	-3	-39	0	0.1
CCOC(=O)/C=c1\s/c(=C(\C#N)C(N)=O)n(-c2ccccc2)c1=O	-4.1	2	5	11	-9	·	-4	-1	-1	3.1
O=[N+]([O-])c1cc(Cl)ccc1Sc1ccccn1	3.2	-5	-12	-3.4	·	i	-12	0	-6	-2.5
CCOc1ccccc1/C=C/c1onc(C)c1S(=O)(=O)N1CCC(C(=O)NC)CC1	-0.8	-8	-28	-6.2	6	i	-9	0	-8	-1.3
O=C(Oc1ccc2c(c1)OCC2=O)c1ccccc1	·	·	·	·	-6	·	13	-1	33	8.3
COCCN(Cc1nc(-c2ccc(-c3ccccc3)cc2)oc1C)C(C)C	9.7	-17	-15	9.2	·	i	6	-3	·	-4.2
COc1ccc(S(=O)(=O)N(C)c2ccc(OC(=O)C(C)Oc3ccc(F)cc3)cc2)cc1 (centres undefined)	-5.2	7	17	-0.8	·	i	-4	-4	4	0.3
O=C(CSc1nc2ccccc2[nH]1)NCc1ccc2c(c1)OCO2	·	·	·	·	-13	·	-1	10	·	1.1
CCOc1ccc(Br)cc1S(=O)(=O)Nc1ccc(C(=O)Nc2ccc(C)cc2)cc1	2.7	3	-11	-1.0	6	i	0	12	-2	-2.8
CCc1nnc(NC(=O)Cc2cccs2)s1	2.5	-4	-2	1.2	-10	i	?	-13	-17	3.2
O=C(CSc1nnc(-c2ccncc2)n1Cc1ccco1)Nc1ccccc1F	-0.6	2	11	38	2	i	3	-3	-2	-0.6
Cc1ccn2c(=O)nc(SCc3cccc(C(F)(F)F)c3)nc2c1	-4.4	-1	-5	-5.1	-7	i	-5	4	-4	-2.2
O=C(COC(=O)c1ccc([N+](=O)[O-])cc1)Nc1ccccc1C(=O)NC1CC1	-6.1	15	12	2.3	1	i	·	·	-1	·
NS(=O)(=O)c1ccc(CCNC(=O)c2ccccc2[N+](=O)[O-])cc1	-7.5	·	·	·	-5	i	-17	-9	4	0.1
Cc1ccc2c(c1)N(CC(=O)N1CCOCC1)C(=O)C(C)O2 (centres undefined)	-0.5	7	1	-1.4	-1	i	-1	-1	1	-1.7
OC1(CN2CCOCC2)C2CN3CCN(C2)CC1(c1ccccc1)C3 (centres undefined)	·	·	·	·	-8	·	4	·	1	-3.1
CCOc1cccc(NC(=O)C2CCCN(S(=O)(=O)c3ccc(-n4cnnn4)cc3)C2)c1 (centres undefined)	·	·	·	·	-1	·	7	6	1	1.4
O=C(CN1CCN(c2ccccc2)CC1)NC(=O)NCc1ccccc1	-5.8	11	15	0.2	-5	i	·	·	·	·
CCOc1ccc(NC(=O)c2ccco2)cc1S(=O)(=O)N1CCCC1	-0.1	0	-19	-3.9	1	i	·	·	·	·
CC1(C)NC(=O)N(CC(O)CNC23CC4CC(CC(C4)C2)C3)C1=O (centres undefined)	·	·	·	·	5	·	-7	-9	·	-2.5
COc1ccc(CCNC(=S)N2CCN(S(=O)(=O)c3ccccc3F)CC2)cc1	1.0	0	-37	-0.7	-2	i	3	-7	0	3.8
CCOc1ccc(N(C)S(=O)(=O)c2ccc(C)c(C(=O)N3CCN(Cc4ccc5c(c4)OCO5)CC3)c2)cc1	1.3	6	0	12	-9	i	·	·	-4	·
C=CCOc1ccc(/C(O)=C2\C(=O)C(=O)N(CCOC)C2c2cccnc2)cc1 (centres undefined)	·	·	·	·	·	·	4	-9	-4	-1.0
Cc1ccc(C(=O)NCCCNC(=O)c2ccc(Cl)cc2)cn1	-3.9	-53	-77	-16	7	i	-1	7	·	-0.8
Cc1ccccc1NC(=S)NN1CCN(C)CC1	·	·	·	·	0	·	-7	-3	23	0.3
CCC1(C)Cc2ccccc2-c2nc(NCCO)n(-c3ccc(C)cc3)c(=O)c21 (centres undefined)	·	·	·	·	-15	·	-1	-13	2	1.9
COc1ccc(Cn2nnnc2C(c2ccc(F)cc2)N2CCN(C3CCCC3)CC2)cc1 (centres undefined)	·	·	·	·	-2	·	-2	16	-16	0.4
COc1ccc(CCC(=O)NNC(=O)Nc2ccccc2Cl)cc1	-3.8	0	3	-2.1	-8	i	50	-6	-22	?
C=CCN1N=C(/C=C/c2ccc(C)cc2)CCC1=O	12	6	-2	-1.0	5	i	-9	4	2	4.1
Cc1cccc(OCCCC(=O)NNC(=O)c2cccc(N(C)C)c2)c1	1.5	-10	-1	1.0	-5	i	·	·	7	·
COc1ccc(CN2CCN(C(=O)c3cccc4ccccc34)CC2)cc1Br	-1.2	-46	-73	-6.9	-4	i	-14	-5	·	-5.0
O=C(C1=NN[C@@H]2C(=O)N(c3cccc(F)c3)C(=O)[C@H]12)c1ccc2ccccc2n1	-1.4	·	·	·	3	i	0	-20	·	-0.8
O=C(CCSc1nc(-c2ccco2)cc(C(F)(F)F)n1)NCCN1CCOCC1	-0.3	·	·	·	-1	i	-13	-6	-15	3.7
COC(=O)c1ccc(N=Nc2c(C)[nH]n(-c3ccccc3)c2=O)cc1	-11	1	12	-2.7	·	i	22	-10	-1	-1.9
CC1CCN(S(=O)(=O)c2ccc(NC(=O)c3ccccc3F)cc2)CC1	3.4	-3	2	3.1	0	i	-4	-1	-10	-2.0
N#C/C(=C/c1ccc(N2CCCCC2)cc1)c1cccc(F)c1	·	·	·	·	2	·	-6	15	4	?
N#CC1=C(N)NC(SCc2ccccc2)=C(C#N)C12CCCC2	·	·	·	·	-6	·	37	-20	5	2.4
COc1cccc(N2CCN(C(=O)CCSCc3ccccc3F)CC2)c1	-13	-35*	-16*	-5.2*	0	i	-27	3	97*	0.9
CCC(Oc1ccccc1)C(=O)Nc1ccc(S(=O)(=O)Nc2ncccn2)cc1 (centres undefined)	-7.6	-1	6	-3.9	4	i	3	-7	25	1.3
COc1cccc(-c2nc(CS(=O)CC(=O)NCc3ccc4c(c3)OCO4)c(C)o2)c1 (centres undefined)	1.6	2	6	-1.6	-6	i	-1	-3	99*	-1.0
COc1ccc(C/C(N)=N/OC(=O)COc2ccccc2C)cc1	·	·	·	·	-7	·	3	13	-1	2.2
COc1ccc(CCNC(=O)CSCC(=O)Nc2cc(S(C)(=O)=O)ccc2Cl)cc1	0.9	12	4	3.4	5	i	·	·	·	·
COc1ccccc1OCCNS(=O)(=O)c1ccc2oc3ccccc3c2c1	·	·	·	·	4	·	-27	-6	-29	1.0
CC1C(=O)CCN(C(C)C)C1C (centres undefined)	·	·	·	·	-7	·	-4	-14	-5	4.5
